# Source: PubChem
# HNF4A DNA FP – change in binding of human HNF4A to DNA, primary screen, biochemical, fluorescence polarization, FITC-DNA; Hepatocyte nuclear factor 4-alpha (Homo sapiens), P41235; 1 h; activity change, % at 10 µM; 360,000 tested, 0.3% active; AID 1224865, 2016; in the data active = activity change above about 30%, passing the limit was not always enough;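 note: controls were the assay level and a saturating level of protein; the project sought stronger binding though the title names inhibitors; some compounds called inactive have numbers as strong as hits; positive values seem to mean higher polarization but the record does not say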
# Vif TR-FRET – inhibitors of Vif binding to APOBEC3G peptide, primary screen, biochemical, TR-FRET, GST-Vif 1-94, biotin-A3G peptide, dose response retest (AID 1117319); Virion infectivity factor (Human immunodeficiency virus type 1 group M subtype B (isolate …; TR-FRET GST-Vif / biotin-A3G peptide binding; higher % means a stronger effect; test concentration not given here; strong numbers were not always called active; one-dose inhibition, %; IC50 in µM for titrated hits; 260,000 tested, 0.57% active;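 active = above the screen mean plus three standard deviations and confirmed in dose response; inconclusive = results disagree or hit not tested in dose response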;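 note: Vif residues 1-94 fused to GST binding biotinylated APOBEC3G peptide 110-148; 0% = full assay without inhibitor and 100% = GST in place of GST-Vif; retest series ran down from 100 µM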
# MLL AF4-AF9 inh – inhibitors of AF4 peptide binding to AF9, primary screen, biochemical, AlphaScreen, biotin-AF4 peptide, FLAG-AF9, single point; inhibition, % at 10 µM; 350,000 tested, 0.47% active; AID 651704, 2012;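 active = every replicate reaching a set inhibition limit, whatever the replicate mean, cut at about 25% in these data; inconclusive = mean inhibition reaches that limit but some replicates miss it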;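 note: 0% = plate neutral control median and 100% = total signal loss; the record names both 10 and 1 µM as test concentration; the first replicate is given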
# Target sequence (P42568 whole entry, looked up): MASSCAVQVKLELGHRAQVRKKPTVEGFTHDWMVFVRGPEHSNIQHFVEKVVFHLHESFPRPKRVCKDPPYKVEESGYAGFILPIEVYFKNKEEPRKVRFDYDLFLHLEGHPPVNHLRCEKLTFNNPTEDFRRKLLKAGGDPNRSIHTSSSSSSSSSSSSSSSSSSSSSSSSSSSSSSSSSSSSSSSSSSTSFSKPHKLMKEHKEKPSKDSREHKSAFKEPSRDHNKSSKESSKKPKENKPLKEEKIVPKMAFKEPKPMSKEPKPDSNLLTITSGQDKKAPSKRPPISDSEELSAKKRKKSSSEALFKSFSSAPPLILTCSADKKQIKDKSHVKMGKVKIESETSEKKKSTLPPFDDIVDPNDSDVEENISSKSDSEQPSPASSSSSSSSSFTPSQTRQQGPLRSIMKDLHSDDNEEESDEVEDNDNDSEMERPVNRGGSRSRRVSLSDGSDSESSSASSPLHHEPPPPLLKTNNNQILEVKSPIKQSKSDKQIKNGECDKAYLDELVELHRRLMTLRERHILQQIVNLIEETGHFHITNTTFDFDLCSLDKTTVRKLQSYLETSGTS
# FGF22 binding – binders of human FGF22 protein, primary screen, FGF22 synaptogenesis inhibitor project, biophysical, thermal shift, single point; Fibroblast growth factor 22 (Homo sapiens), Q9HCT0; AID 651658, 2012; recombinant FGF22 thermal shift, SYPRO orange fluorescence; percent of sucrose octasulfate shift, DMSO zero; 340,000 tested, 1.5% active; calls only at 9.99 µM;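 active = melting point raised past a set limit in the mean and every replicate; inconclusive = no clear call; three in four hits are not shown here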
# Target sequence (Q9HCT0 whole entry, looked up): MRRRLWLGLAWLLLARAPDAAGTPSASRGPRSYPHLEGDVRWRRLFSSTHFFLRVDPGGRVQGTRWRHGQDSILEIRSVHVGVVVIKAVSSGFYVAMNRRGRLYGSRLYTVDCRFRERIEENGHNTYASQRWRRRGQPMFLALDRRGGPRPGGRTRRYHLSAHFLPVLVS
# Ecoli growth – E. coli growth inhibition, primary screen, OD600; Escherichia coli growth, 23 h; active compounds read low; OD600 absorbance (test concentration not listed); 330,000 tested, 0.21% active;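 active = OD600 absorbance below the run mean of sample wells minus 3.6 SD, in any replicate, cut at about 0.56 in these data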;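 note: stock transfer was 300 nL into about 60 µL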
# UCH37 DUB inh – inhibitors of human UCH37 deubiquitinase, primary screen, biochemical, Ub-AMC cleavage, fluorescence; Ubiquitin carboxyl-terminal hydrolase isozyme L5 (Homo sapiens), Q9Y5K5; inhibition, % (no concentration beside the values); 330,000 tested, 0.33% active; purified proteasome/UCH37;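 active = mean of two replicates above 20%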;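 note: 0% = compound-free wells with enzyme and 100% = wells lacking proteasome; stock transfer was 100 nL into about 20 µL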
# Target sequence (Q9Y5K5 whole entry, looked up): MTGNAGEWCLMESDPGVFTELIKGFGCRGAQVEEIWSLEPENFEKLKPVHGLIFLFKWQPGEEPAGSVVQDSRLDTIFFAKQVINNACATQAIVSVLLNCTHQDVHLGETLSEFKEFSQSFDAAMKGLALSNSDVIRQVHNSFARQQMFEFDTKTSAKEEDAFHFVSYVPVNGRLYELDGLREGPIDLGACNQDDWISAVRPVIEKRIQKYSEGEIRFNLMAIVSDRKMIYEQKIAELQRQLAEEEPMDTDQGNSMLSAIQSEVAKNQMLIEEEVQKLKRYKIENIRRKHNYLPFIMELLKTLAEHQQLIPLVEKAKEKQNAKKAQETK
#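 assay system = human UCH37 enzyme supplied as purified proteasome complex | amount = proteasome at 0.15 nM in the dispensed enzyme solution | schedule = 30 min compound-proteasome preincubation then 25 min substrate reaction, room temperature | measured by = fluorescence, ex 355 nm, em 460 nm | benchmarks = no-proteasome wells (full inhibition) and compound-free wells (no inhibition)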
# RanGTP-Imp inh – inhibitors of RanGTP-importin-beta interaction, primary screen, biochemical, FRET, CFP-Ran, YFP-importin-beta, homogeneous. Ran GTPase (GTP-bound) - importin-beta complex. cell-free CFP-Ran/YFP-importin-beta FRET ratio. inhibition, % (no concentration beside the values). 300,000 tested, 1.1% active. AID 2216, 2009;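 active = most replicates above 15%; inconclusive = exactly half above 15%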;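 note: 0% = DMSO wells and 100% = Ran loaded with GDP instead of GTP; wells of about 40 µL received 100 nL stock; the first replicate is given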
# Numbers without * were called inactive; i = inactive; ? = inconclusive; . = not tested or not shown; & = joins results of further samples. Not all compounds are listed; the hit share may differ from the screen's.
smiles	FGF22 binding	UCH37 DUB inh	Vif TR-FRET	Ecoli growth	HNF4A DNA FP	RanGTP-Imp inh	MLL AF4-AF9 inh
Fc1ccccc1Cc1nnc2n1N=C(c1ccc(Cl)cc1)CS2	.	.	5%	.	0.1	-5.5	.
Nc1oc2ccccc2c(=O)c1C=O	.	0.3	1%	0.66	2.8	3.0	.
Cc1ccc(Cl)c(OCC(=O)Nc2ccc3c(c2)OCCO3)c1	.	0.8	-4%	0.74	1.8	1.0	.
COC(=O)c1[nH]c2cccc(OC)c2c1NC(=O)CCN1CCN(c2ccccc2OC)CC1	.	-62	0%	0.72	3.2	-2.4	.
Cn1c(NC2CCCCC2)cc(=O)n(C)c1=O	i	-3.8	-4%	0.63	-1.2	-1.0	-1.7
Cc1ccc(CC(=O)Nc2nccs2)cc1C	i	3.0	.	0.68	3.2	6.1	-2.0
CC(C)(C)OC(=O)NCCCCCNC(=O)c1[nH]cnc1C(=O)Nc1cccc(Cl)c1	i	1.0	.	0.7	-1.8	.	0.6
Cc1c(Cl)cccc1NC(=O)COC(=O)C12CC3CC(CC(O)(C3)C1)C2	i	1.8	-4%	0.68	-0.3	.	1.9
Cc1cc(C)nc(SCC(=O)Nc2ncc3c(n2)CC(C)(C)CC3=O)n1	.	5.0	-8%	0.73	0.2	0.5	.
Cc1sc(NC(=O)/C=C/c2ccc3c(c2)OCO3)nc1-c1ccccc1	.	-49	10%	0.71	-0.6	-0.8	.
O=C(NC1CCCCC1)C1c2ccccc2C(=O)N1Cc1ccco1 (stereo unspecified)	i	-2.6	4%	0.72	8.4	5.1	-32
CCC1(C)Cc2c(sc3nc(SC)[nH]c(=S)c23)CO1 (stereo unspecified)	.	1.1	.	0.63	.	-2.9	.
COc1ccc(S(=O)(=O)N2CCOC2CNC(=O)C(=O)NCCCN(C)C)cc1C (stereo unspecified)	i	-3.0	-4%	0.74	16	-0.2	8.7
COc1ccc(Nc2nnc(-c3ccc(O)cc3)c3ccccc23)cc1C(N)=O	i	-2.4	-2%	0.69	4.0	-1.8	1.1
O=C(Cn1c(=O)n(CCC(=O)N2CCc3ccccc3C2)c(=O)c2ccccc21)NCC1CCCO1 (stereo unspecified)	.	0.1	2%	0.72	-0.7	-0.6	.
O=C(c1cccc(OC(F)F)c1)N1CCN(c2ncccn2)CC1	.	-5.2	-7%	0.71	0.2	-0.5	.
O=C(Nc1ccc(N2CCOCC2)cc1)NC1CCCCC1	.	2.5	-1%	0.66	2.9	0.7	.
COC(=O)c1ccc(NC(=O)CSc2nnc(C3CC3)n2C)cc1	i	2.8	-12%	0.7	3.6	-0.5	-0.9
CN(C(=O)c1cncc(Br)c1)C1C2CC3CC(C2)CC1C3 (stereo unspecified)	i	3.2	.	0.66	1.3	4.2	-6.7
CN1CCN(c2nc(-c3cccs3)cs2)CC1	i	0.9	4%	0.62	-1.6	-0.6	22
CC1CCCCCCC1OC(=O)c1ccccc1C(=O)O (stereo unspecified)	.	.	0%	.	1.2	.	2.6
CC(C)C(NC(=O)c1ccccc1NC(=O)C(C)(C)C)C(=O)N1CCOCC1 (stereo unspecified)	i	0.4	.	0.7	-1.3	.	-8.0
O=C(N/N=C/C(Br)=C\c1ccccc1)c1ccco1	i	.	8%	.	2.3	?	6.1
CC(C)C1C(=O)CC(c2ccccc2)NC1c1ccccc1 (stereo unspecified)	i	3.6	-6%	0.68	38*	6.9	1.2
COc1ccc(CNC(=O)COC(=O)c2cc(C)nc3ccccc23)cc1	i	2.9	-16%	0.75	5.1	.	1.2
COC(=O)c1cc(Br)c(=O)n(CCN2CCCCC2)c1	.	-0.6	-2%	0.68	0.6	0.8	.
Cc1cc(C)cc(NC(=O)N(C)Cc2ccccc2)c1	i	4.0	-5%	0.69	1.3	1.8	-1.0
O=C(CSc1nc2ccccc2n1Cc1ccc(Cl)cc1)N/N=C/c1ccccc1C(=O)O	i	.	.	.	-3.5	-0.3	-1.5
CCCCN1C(=N)N([C@@H](CN2CCC[C@H]2CN2C(N)=NC[C@@H]2Cc2ccccc2)C(C)C)C[C@H]1Cc1ccccc1	i	-0.4	.	.	4.9	.	12
COC(=O)C1=C(C)N(C)C(=O)NC1c1cc(Cl)c(O)c(OC)c1 (stereo unspecified)	i	-1.6	-4%	0.71	3.1	0.2	-1.2
Cc1nn(Cc2ccccc2Cl)c2sc(C(=O)NCCCn3ccnc3)cc12	.	2.4	-31%	0.65	-1.3	-1.9	.
CCCC(=O)N1CCc2cc(OC)c(OC)cc2C1c1cc2cc3c(cc2[nH]c1=O)OCO3 (stereo unspecified)	.	-40	.	0.73	2.1	0.0	.
Cc1ccc(Cl)c(NC(=O)COC(=O)c2nn(-c3ccccc3)cc2O)c1Cl	i	-10	-3%	0.65	6.0	.	1.5
CCn1c(SCC(=O)c2cc(OC)ccc2OC)nnc1C1CC1	.	2.1	0%	0.7	-0.7	-4.0	.
O=S(=O)(c1ccc(Cl)cc1)N1CCN=C1SCc1cccc(Cl)c1	i	0.6	0%	0.73	-0.8	1.5	0.4
Cc1cc(OC(=O)c2ccc(Cl)cc2Cl)nc(C)n1	.	1.9	-3%	0.69	-2.3	1.0	.
COc1ccc2[nH]c(C)c(C(=O)CN3CCOCC3)c2c1	.	5.4	6%	0.69	-0.1	4.2	.
CC(=O)Nc1ccc(NC(=O)CSc2nnc(-c3cc4ccccc4o3)n2C)cc1	i	-2.2	.	0.61	0.1	0.6	0.3
CCCNC(=O)c1cc2c(c(-c3cccc(-c4ccc(C#N)cc4)c3)n1)[C@@H](CCO)N(C(=O)CC)C2	i	.	.	.	0.1	.	-0.6
CC(Sc1nnnn1-c1ccccc1)C(=O)Nc1ccc(Cl)cn1 (stereo unspecified)	.	0.4	65%	0.69	2.1	3.8	.

# Continued; the last 2 above are carried over.
smiles	FGF22 binding	UCH37 DUB inh	Vif TR-FRET	Ecoli growth	HNF4A DNA FP	RanGTP-Imp inh	MLL AF4-AF9 inh
CCCNC(=O)c1cc2c(c(-c3cccc(-c4ccc(C#N)cc4)c3)n1)[C@@H](CCO)N(C(=O)CC)C2	i	.	.	.	0.1	.	-0.6
CC(Sc1nnnn1-c1ccccc1)C(=O)Nc1ccc(Cl)cn1 (stereo unspecified)	.	0.4	65%	0.69	2.1	3.8	.
C#CCN(C[C@H]1[C@H](OC(=O)NCc2ccc(OC)c(OC)c2)[C@H](OC(=O)NCc2ccc(OC)c(OC)c2)C[C@H]2C(=O)N(c3ccccc3)C(=O)[C@@H]12)S(=O)(=O)c1ccc(C)cc1	i	.	0%	.	4.8	.	1.3
COCc1cc(N2CCN(c3ccccc3F)CC2)nc(-c2ccccc2)n1	i	2.6	-5%	0.66	-4.3	1.6	-2.8
Cc1cc(C(=O)Nc2ccc(Br)cc2F)n(-c2ccccc2)n1	i	0.8	-1%	0.66	1.9	0.9	-4.2
Cc1nc2sc(C(c3ccc(F)cc3)N3CCOCC3)c(O)n2n1 (stereo unspecified)	.	-1.1	-3%	0.73	0.0	-3.2	.
COc1ccc(C(=O)N/N=C\c2ccc(OC)c(COc3ccccc3Br)c2)c(OC)c1	i	.	.	.	4.6	-0.7	0.1
O=S(=O)(N[C@@H]1CC[C@H](CCNS(=O)(=O)c2ccccc2Cl)O[C@@H]1CO)c1ccccc1	i	.	.	.	3.2	.	-0.9&1.2
CC1c2cc3c(cc2CCN1C(=O)c1cccc(F)c1)OCCCO3 (stereo unspecified)	i	-13	1%	0.68	2.1	0.1	1.2
Cc1ccc(C)c(C(=O)N(Cc2nc(-c3ccc(Cl)cc3)no2)C(C)C)c1	i	7.3	-7%	0.79	0.5	3.9	3.5
CN1[C@@H]2CC[C@H]1CC(OC(=O)c1c[nH]c3ccccc13)C2 (stereo partly specified)	i	1.9	.	.	4.0	-0.9	0.1
O=C(Nc1ccc(Cl)c(Cl)c1)C1=Cc2ccccc2OC1	.	-1.9	-2%	0.55	-0.4	1.2	.
COc1ccc2oc(C(=O)Nc3ccccn3)c(C)c2c1	i	-13	.	0.69	5.8	3.8	-3.8
Cc1cc(C(=O)N/N=C2\CC(=O)CC(C)(C)C2)c(C)n1-c1ccccc1	i	.	11%	.	3.6	7.2	6.9
Cc1c(/C=N/NC(=O)c2cc(Br)ccc2O)c(=O)n(C)c(=O)n1C	i	.	3%	.	-0.2	3.1	-0.1
CC(C)(C)c1ccc2cccc(F)c2n1	i	.	.	.	5.3	.	1.7
CCCSc1nc(-n2ncc(C#N)c2N)c2c3c(sc2n1)CCC(C)C3 (stereo unspecified)	i	2.7	-12%	0.71	-1.8	2.2	4.0
C/C(=N/NC(=O)CNC(=O)Cc1ccccc1)c1ccc(Cl)cc1	i	.	-1%	.	2.0	3.1	2.7
CSc1ccccc1C(=O)NC1CCCCCC1	.	5.2	3%	0.76	-0.7	-4.1	.
O=C(NN=c1c(=O)c2ccccc2c1=O)c1ccccc1	i	79*	?	0.63	-0.3	0.9	-5.4
Oc1ccc(Cl)cc1CNc1ccccn1	i	4.2	-2%	0.66	-0.9	-1.2	-12
Cc1ccc(NC(=O)Cn2cc(S(=O)(=O)c3ccc(C)cc3)c(=O)c3cc(F)ccc32)cc1	.	2.2	-15%	0.76	2.3	1.5	-0.8
COc1cc(NC(=S)N2CCN(c3ccccn3)CC2)cc(OC)c1	.	-0.4	0%	0.69	-1.8	-3.7	.
O=C(CNC(=O)Cc1ccccc1)N=Nc1c(O)[nH]c2ccccc12	.	7.5	3%	0.7	-2.0	0.4	2.3
COc1ccccc1NC(=O)CSCC(N)=O	i	1.8	-4%	0.69	0.3	?	-12
COc1cc2oc(=O)ccc2cc1[C@H](O)[C@@H](O)C(C)(C)O	i	2.3	.	0.8	-0.9	.	.
Cc1cccc(OCCc2c(C)[nH]c(=S)[nH]c2=O)c1	i	1.8	-2%	0.7	-3.9	-2.2	-2.2
Cc1cc2oc(=O)cc(-c3ccccc3)c2c(C)c1-c1ccc(N(C)C)cc1	i	2.3	0%	0.75	-3.7	.	7.5
COc1ccc(OCCCC(=O)ON=C(N)c2ccccc2Cl)cc1	i	2.0	-13%	0.7	0.9	.	-0.4
Cc1cc(C(=O)COc2ccc(Br)cc2F)c(C)n1C1CC1	i	1.2	.	0.67	2.5	.	6.2
CCN(CC)C(=O)CSc1nnc(CNc2ccc(F)cc2)n1Cc1ccco1	.	6.3	7%	0.71	-0.3	4.2	.
Cc1onc(-c2c(Cl)cccc2Cl)c1C(=O)c1c[nH]c(C(=O)NCCCN2CCOCC2)c1	.	4.9	30%	0.74	0.6	5.0	.
O=C(O)c1ccc(Cl)c(S(=O)(=O)NCC2CCCO2)c1 (stereo unspecified)	.	-2.6	2%	0.67	3.1	?	.
COc1ccc(-c2nnc(NC(=O)CSc3ccccc3)s2)cc1OC	i	-44	9%	0.68	1.5	5.2	-9.7
OC(COc1ccccc1)CN1CCN(c2ncccn2)CC1 (stereo unspecified)	.	-0.3	7%	0.69	2.3	?	.
